# VACV Venus inh: vaccinia inhibition (Venus reporter) | 330,000 compounds, 0.46% hits | Vaccinia virus Venus reporter expression, fluorescence | AID 720580 | Potency, µM (doses to about 36.5 µM), inactives show top-dose activity change, negative = inhibition, usual class: inhibitors; active means well fitted inhibition curve with a large enough effect; inconclusive means small, poorly fitted or top-dose-only effect; inactive means no such curve, though single readings can be large or run the other way; tested in A549 cells; also: nearly all actives have a fitted effect of over 30% in size; inactives centre near -10
# Vaccinia mCherry: vaccinia inhibition (mCherry reporter) | 310,000 compounds, 0.63% hits | Vaccinia virus mCherry reporter infection, fluorescence; about a quarter of the inactives have no number | Potency, µM (top dose mostly 36.5 µM), for the others: at the top dose activity change, negative = inhibition, actives largely listed as inhibitors; active = well fitted inhibition curve with a large enough effect; inconclusive = small, poorly fitted or top-dose-only effect; inactive = no such curve, though single readings can be large or run the other way; tested in A549 cells; also: nearly all actives have a fitted effect of over 35% in size; inactives centre near -10
# * marks the source's active call; other numbers are inactive results; i = inactive; ? = inconclusive; . = not tested or not shown; & = joins results of further samples; [ ] = dose if it differs, or a comment. % is scaled to controls: 0 for no effect and ±100 for the full control effect; potency is read from the fitted curve at half-maximal effect.
SMILES	VACV Venus inh	Vaccinia mCherry
CCC(C(=O)NCCc1ccc(SC)cc1)n1nc(C)c2c(C)n(-c3ccc(C)cc3)nc2c1=O (stereo not given)	?	-21%
[N-]=[N+]=NC[C@H](Cc1ccccc1)N1CCN(Cc2ccccc2)CCC1=O	-5%	i
NS(=O)(=O)c1cccc(N2CCNCC2)c1	-4%	-2%
CCCn1c(SCC(=O)N2CC(=O)Nc3ccccc32)nc2ccccc21	-7%	-29%
C=CCOC(=O)C1=C(C)Nc2nnnn2C1c1cccc(OC)c1OC (stereo not given)	-17%	.
CCOC(=O)C1(C)NC(c2ccc(OC)cc2OC)C2C(=O)N(c3cccc(OC)c3)C(=O)C21 (stereo not given)	1%	-7%
COC(=O)c1c(NC(=O)c2ccc(N(C)S(=O)(=O)c3ccc(C)cc3)cc2)sc2c1CCCC2	-13%	i
COc1cc2nc(N3CCN(C)CC3)nc(NC3CC3)c2cc1OC	-13%	-23%
COc1c(C)cc(Br)cc1C(=O)Nc1cccc(NC(=O)c2ccco2)c1	-23%	3%
COc1ccccc1CNS(=O)(=O)c1ccc(-c2cc(C(F)(F)F)on2)s1	-16%	-10%
CC(=NNC(=S)N1CC2CCC(CC2)C1)c1cccc(C)n1	?	4µM*
Cc1cc(C)c(S(=O)(=O)N2CCCCC2CCNC(=O)C(=O)NCC2CCCO2)c(C)c1 (stereo not given)	-13%	-25%
COc1ccccc1C(=O)OCc1cc(=O)n2ccsc2n1	-10%	-21%
C[C@H](CO)N1C[C@H](C)[C@@H](CN(C)C(=O)NC2CCCC2)Oc2cc(Br)ccc2S1(=O)=O	-16%	-8%
Cc1[nH]c(=S)c(C#N)c(C)c1CCC#N	5%	2%
CCC(/C=N/Nc1ccc(S(=O)(=O)N2CCCC2)cc1[N+](=O)[O-])CC	-7%	-13%
Cc1ccc(CCNC(=O)NCc2noc3ccc(C)cc23)cc1	-1%	-4%
COc1ccc(OCc2cc(C(=O)N[C@H]3CCCCNC3=O)no2)c(Cl)c1	-8%	i
COc1ccc(OC)c(NC(=S)NCc2cccnc2)c1	-4%	-15%
CCOc1ccc(CCNC(=O)Cn2c(=O)c3cccn3c3ccc(F)cc32)cc1OCC	0%	-4%

# Profiles, looked up by structure. Screens in order: VACV Venus inh | Vaccinia mCherry
# CCC(/C=N/Nc1ccc(S(=O)(=O)N2CCCC2)cc1[N+](=O)[O-])CC reads -7% | -13%
# CCOc1ccc(CCNC(=O)Cn2c(=O)c3cccn3c3ccc(F)cc32)cc1OCC reads 0% | -4%
# COc1ccccc1C(=O)OCc1cc(=O)n2ccsc2n1 reads -10% | -21%

# More structures:
SMILES	VACV Venus inh	Vaccinia mCherry
O=S(=O)(/N=C(/c1ccccc1)N1CCCCC1)c1ccccc1	-12%	-1%
CC1(C)CC23C(=O)CCC(O)C2(C)CCC13 (stereo not given)	-7%	-4%
COc1ccc(-c2nc(C(=O)NCCCN3CCOCC3)cc3c2[nH]c2ccccc23)cc1OC	-17%	-21%
Cc1cccc(NC(=S)N/N=C2\CC(C)(C)Oc3ccc(O)cc32)c1	-26%	?
O=C(CSc1nnc(COc2ccc(Br)cc2)o1)NC1CCCCC1	-2%	-1%
Cc1csc(=N)n1Cc1ccccc1	-15%	-14%
O=C(COC(=O)C1CC2C=CC1C2)Nc1cccc(S(=O)(=O)N2CCCCCC2)c1 (stereo not given)	-26%	-20%
C[C@@H](NC(=O)c1nc[nH]c1C(=O)NCC(=O)OC(C)(C)C)c1ccccc1	-11%	-11%
COc1ccc(CCNC(=O)c2ccc3c(=O)n4c(nc3c2)CCC4)cc1OC	-8%	-6%
N#C/C(=C\c1ccc(OC(=O)c2ccc(Br)s2)cc1)c1nc2ccccc2[nH]1	-16%	-4%

# Grouped by structure: those above with a cyano group
SMILES	VACV Venus inh	Vaccinia mCherry
Cc1[nH]c(=S)c(C#N)c(C)c1CCC#N	5%	2%
N#C/C(=C\c1ccc(OC(=O)c2ccc(Br)s2)cc1)c1nc2ccccc2[nH]1	-16%	-4%

# (list continues)
SMILES	VACV Venus inh	Vaccinia mCherry
CC1CCCN(S(=O)(=O)c2coc(C(N)=O)c2)C1 (stereo not given)	0%	-4%
COc1ccc(CC(=O)N(Cc2nc(-c3ccc(C)cc3)no2)C(C)C)cc1	-4%	-4%
CCNc1nnc(-c2ccncc2)s1	3%	-9%
CC1(C(=O)NCCc2c[nH]c3ccccc23)CCN1Cc1ccccc1OC(F)F (stereo not given)	1%	?
CCc1ccc(-c2nn(-c3cc(Cl)ccc3[N+](=O)[O-])c(=O)c3ccccc23)cc1	-6%	.
Cc1onc(-c2ccccc2)c1-c1nnc(COC(=O)c2ccc(O)cc2)o1	-3%	?
O=C(CCCn1cc([N+](=O)[O-])cn1)NC1CCCCCC1	-11%	0%
COc1ccc(Cl)cc1NC(=S)Nc1ccccc1F	-1%	i
COCCCN(CC(=O)O)S(=O)(=O)c1cccc(Cl)c1	-3%	i
CS(=O)(=O)Cc1ccc(C(=O)N2CCCC2c2cccs2)cc1 (stereo not given)	-4%	-3%
CN(CC(=O)Nc1cccc(C(F)(F)F)c1)S(=O)(=O)c1ccc2[nH]c3c(c2c1)CCCC3	-13%	-18%
Cc1ccc2cc(CN(c3ccc(C)c(C)c3)S(C)(=O)=O)c(=O)[nH]c2c1	-19%	i
COc1ccccc1NC(=O)NCC(c1ccco1)N1CCCCC1 (stereo not given)	-4%	i
CCCS(=O)(=O)N1CCCC(C(=O)NCCCN(Cc2ccccc2)C(C)C)C1 (stereo not given)	0%	.
O=C(CC(=O)N1CCOCC1)N1CCOCC1	1%	-12%
CCOc1ccsc1C(=O)O	-22%	0%
CCCCc1cc(=O)oc2cc(C)cc(OCC(=O)NCC3CCC(C(=O)O)CC3)c12 (stereo not given)	0%	-10%
CCN(Cc1ccccc1)C(=O)c1cc2c(=O)oc3ccc(C)cc3c2s1	-8%&-3%	3%&-10%
CC1(C(=O)NS(=O)(=O)c2cccc(F)c2)CCN1C(=O)C/C=C/c1ccccc1 (stereo not given)	-1%	11%
CCOc1ccccc1NCc1nnc2n1CCCCC2	5%	0%
Cn1c[n+](C)cc1-c1ccc(/C(N)=N/O)cc1	-17%	-17%
C=CCN(c1ccc(C(=O)OC)cc1)S(=O)(=O)c1ccccc1	-6%	i
COc1ccc(C(=O)NC(=S)Nc2ccccc2N2CCOCC2)cc1Br	-8%	0%
O=C(Nc1cc2c(cc1C(=O)O)OCCCO2)c1ccc(F)cc1F	-6%	-12%
COC(=O)C1C2C=CC3(CN(Cc4ccco4)C(=O)C13)O2 (stereo not given)	-1%	-11%
CCc1nc2ccc(C(=O)NCc3ccc(OC)cc3)cn2c1N(CCC(C)C)CCN(C)C	-18%	5%
Cc1onc(-c2ccccc2)c1C(=O)NCc1ccc2c(c1)OCO2	-11%	-15%
CCc1ccc(C(=O)c2cn(CC(=O)Nc3ccc4c(c3)OCCO4)c3ccc(C)cc3c2=O)cc1	-15%	-7%
COc1cccc(NC(=O)CSc2nc3c(sc4ccccc43)c(=O)n2CCN(C)C)c1	-19%	i
CC(C)CN(C(=O)Cn1c(C(F)(F)F)nc2ccccc21)C1CCS(=O)(=O)C1 (stereo not given)	-16%	i
CC(=O)C(Cc1ccc(Cl)nc1)Cc1ccc(Cl)nc1	-6%	-17%
CC(=O)Nc1ccc(-c2sc(Nc3cccc4ccccc34)n[n+]2-c2ccccc2)cc1	-6%	i
COc1cccc(C(=O)NC(=S)Nc2ccccc2N2CCCC2)c1	-19%	?
O=C(c1cc2ccccc2[nH]1)N1O[C@@H]2C=C[C@H]1C2	-2%	-8%
NC(=O)Cn1c(-c2nonc2N)nc2ccccc21	-15%	i
CCOC(=O)c1nn(-c2ccc(Cl)cc2)c2nc(Nc3ccccc3)cc(=O)n12	-14%	.
CCC(C)COC(c1ccccc1)(c1ccccc1)C(Oc1nc(C)cc(C)n1)C(=O)O (stereo not given)	-27%	-7%
CN(C)c1ccc(CNCC2CCCO2)cc1 (stereo not given)	-9%	-12%
Cc1ccc(Sc2ccc(CN3CCCCC3)cc2[N+](=O)[O-])cc1	-23%	?
Cc1nn(C(=O)COc2ccccc2Br)c(C)c1Sc1ccccc1	-10%	-23%
CC(C)CC(=O)Nc1nnc(SCC(=O)NCc2ccco2)s1	-3%	-8%
COCCN1C(=O)c2ccccc2C1c1nnnn1Cc1ccccc1 (stereo not given)	-11%	-6%
O=C1CCCN1c1ccc(C(=O)N(Cc2nnc(-c3ccc(Cl)cc3)o2)C2CC2)cc1	-9%	-18%
O=C(COc1ccc([N+](=O)[O-])cc1)NNC(=O)c1cccnc1	-5%	-26%
COc1cc(/C=C2\SC(=S)N(C(C(=O)O)c3ccccc3)C2=O)cc(OC)c1OC (stereo not given)	49%[activator]	-2%
Cc1ccc(Cn2c(C3CCCN3c3nc(-c4cc(Cl)c(N)c(Cl)c4)cs3)nc3cc(Cl)c(Cl)cc32)cc1 (stereo not given)	-5%	-12%
CCOC(=O)c1cc(NC(=O)N2CCCCC2)c(C)nc1C	-3%	-9%
Cc1ccc2nc3n(c(=O)c2c1)-c1ncccc1C(=O)NC3Cc1ccccc1 (stereo not given)	-20%	-10%
COc1ccc(/C(C)=N/NC(=O)C2CC2)cc1	-8%	i
CCCn1c2ccccc2c2cnn(CC(=O)NC(CCSC)C(=O)OC)c(=O)c21 (stereo not given)	0%	-6%

# More structures
# Fields – VACV Venus inh	Vaccinia mCherry
Cn1cnc2nc[nH]c2c1=O
→ -1%	10%
C=CCN1C(=O)C2C3C=CC(C2C1=O)C1C2C(=O)N(CC=C)C(=O)C2C31 (stereo not given)
→ -3%	-6%
CC(=O)Nc1ccc(NC(=O)C2CC(=O)N(Cc3ccco3)C2)cc1 (stereo not given)
→ -1%	-6%
CC(=O)Nc1ccc(S(=O)(=O)N2CCN(c3cc(C)nc4ccccc34)CC2)cc1
→ 2%	-3%
CC(=O)Nc1ccc(-c2nnc(SCc3ccccc3)n2C)cc1
→ -7%	-15%
Cc1noc(C)c1S(=O)(=O)N1CCC(C(=O)N2CCN(c3cccc(C(F)(F)F)c3)CC2)CC1
→ -2%	-11%
Cc1cccc2c(=O)cc(C)n(Cc3ccccc3)c12
→ -9%	-11%
COc1cccc(C(=O)Nc2ccc(NC(=O)C3CCCCC3)nc2)c1
→ -23%	-20%
O=C(COC(=O)c1cc([N+](=O)[O-])ccc1N1CCOCC1)Nc1c(Cl)cccc1Cl
→ -6%	-5%
Cc1cccc(NC(=O)c2cc(=O)c3ccccc3o2)c1
→ -7%	-17%
O=C(COC(=O)CSc1ccc2ccccc2c1)Nc1ccccc1OC(F)F
→ -10%	-2%
CN(C)C1=NC[C@H](Cc2ccccc2)N1CCCC1CCCC1
→ -22%	0%
CC(C)CC(=O)Nc1nnc(SCC(=O)NCc2ccc3c(c2)OCO3)s1
→ -3%	0%
CSCCC(NC(=O)c1cccc(S(=O)(=O)N2CCOCC2)c1)C(=O)Nc1ccc(F)cc1 (stereo not given)
→ -14%	-7%
CCC(=O)Nc1ccc(NC(=O)c2cccc(OC)c2)nc1
→ -6%	-13%
Cc1ccccc1NS(=O)(=O)c1ccc2c3c(cccc13)C(=O)N2C
→ -19%	-18%
CC(C)c1ccc(/C=N/NC(=O)c2ccccn2)cc1
→ -19%	i
CCOc1ccccc1NS(=O)(=O)c1ccc2c(c1)NC(=O)CCS2
→ -20%	-17%
O=C(NCC1CCCO1)/C(=C\c1ccccc1F)NC(=O)c1ccccc1 (stereo not given)
→ -10%	-2%
COc1cccc(NC(=O)CSc2cc(C)[nH]c(=O)n2)c1
→ -3%	-2%
Cc1cc(C)cc(NC(=O)CSc2nccn2Cc2ccco2)c1
→ -17%	-29%
O=c1c2ccccc2[nH]c(=S)n1CCCN1CCOCC1
→ -20%	.
O=C(NNC(=O)c1cc(Cl)nc2ccccc12)c1ccccc1F
→ 2%	-12%
CC(C)Sc1oc(-c2cccs2)nc1S(=O)(=O)c1ccc(Cl)cc1
→ -3%	-2%
CCCC(=O)Nc1ccc(NC(=O)c2cccs2)cn1
→ -9%	-8%
COc1ccc(-c2cc3ccccc3n2CC(O)Cn2nc(C)cc2C)cc1 (stereo not given)
→ -27%	-8%
O=C(/C=C\NCC(=O)c1ccccc1)c1ccc2ccccc2c1
→ -10%	i
COc1cccc(C2C(C#N)=C(C)NC3=C2C(=O)CC(C)(C)C3)c1 (stereo not given)
→ -14%	-8%
O=C(N/N=C/c1ccco1)c1ccc2nc[nH]c2c1
→ 1%	-2%
N#CCC(=O)Nc1ncn(Cc2ccccc2Cl)n1
→ -8%	-7%
CCN1CCN(S(=O)(=O)c2ccc(Cl)c(C(=O)Nc3ccccc3N3CCCCC3)c2)CC1
→ -25%	-30%
Cc1ccc(NC(=O)CS(=O)CC(=O)N2CCN(c3ccccc3)CC2)cc1 (stereo not given)
→ -9%	-22%
COc1ccc(C(=O)NCCc2c[nH]c3ccc(OC)cc23)cc1
→ -14%	?
NC(=O)CC(CC(=O)OCc1ccccc1)c1ccccc1 (stereo not given)
→ 7%	-22%
Cc1cccc(S(=O)(=O)Nc2cccc(-c3cn4ccsc4n3)c2)c1
→ ?	.
CC/C(=N\NC(=O)CNC(=O)/C=C/c1ccco1)c1ccccc1
→ -16%	.
CNC[C@@H]1Oc2cc(Br)ccc2S(=O)(=O)N([C@@H](C)CO)C[C@H]1C
→ -8%	-4%

# Screening data deposited in PubChem by National Center for Advancing Translational Sciences (NCATS).
